# Prx2 Sm inh: Schistosoma mansoni Prx2 inhibition | Potency, µM | AID 448 | S. mansoni Prx2 activity coupled to TGR/GSH (TGR is thioredoxin glutathione reductase), NADPH fluorescence loss, qHTS; some inactives read as strong as hits | 65,000 compounds, 0.07% hits; active means full or partial inhibition curve with a strong effect at the top dose; inconclusive means weaker partial or single-point curve; inactive means no accepted curve; also: series up to 57 µM; many of its hits are not listed in these tables
#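 Prx2 inhibition was measured as reduced NADPH consumption when electrons flowed from NADPH through TGR and glutathione to Prx2 and H2O2. Plates were read kinetically over 8 min; enzyme reagents were held at 4 deg C during dispensing.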
# Anthrax LT inh: inhibitors of anthrax lethal toxin internalization. Cells, anthrax lethal toxin internalization, FRET ratio (460/530). Potency, µM (doses to about 40 µM), for inactives: top-dose activity change, negative = inhibition, actives largely listed as inhibitors. 70,000 compounds, 0.67% hits; active = well fitted falling ratio curve with the 530 nm signal flat; inconclusive = other ratio curves, or a change in one channel alone; inactive = flat curves in the ratio and both channels; the % refers to the ratio; also: % is scaled to controls: 0 for no effect and ±100 for the full control effect; nearly all actives have a fitted effect of over 50% in size; tested in ME-180 cells; beta-lactamase reporter
# * marks the source's active call; other numbers are inactive results; u = inconclusive; x = no result given; & = joins results of further samples; [ ] = another dose, or the depositor's remark. Potency is read from the fitted curve at half-maximal effect.
smiles	Prx2 Sm inh	Anthrax LT inh
CCCn1c(SCC(=O)Nc2ccc3c(c2)OCO3)nc2c1c(=O)n(C)c(=O)n2C	>57	-6%
O=C(Cc1cn2ccsc2n1)Nc1nc2c(s1)CN(Cc1ccccc1)CC2	>57	u
CCCCN(CC)CCNC(=O)Cn1cnc2sc(C)c(S(=O)(=O)N3CCOCC3)c2c1=O	>57	-12%
COc1ccc(C(=O)N(Cc2nc(-c3ccc(C)cc3)no2)C(C)C)cc1OC	>57	-10%
Nc1nnc(SCC(=O)NC2CCCCC2)n1-c1ccccc1	>57	0%
COCC(=O)N1CCC2(CCCN(c3ccccc3)C2)CC1	>57	u
Cc1ccc(-c2nc(COC(=O)c3c(C)noc3C)cs2)cc1	>57	7%
O=c1n(-c2ccccc2)c(=O)n2n1CC[C@H]1/C(=N\OC[C@@H](O)COCc3ccco3)[C@H]3O[C@@H]3[C@@H](O)[C@@H]12	x	-2%&-1%[8 µM]
CCN(CCNC(=O)C1CCCN(S(=O)(=O)c2cnc[nH]2)C1)c1ccccc1 (configuration not stated)	>57	-8%
O=C(O)c1c2c(nc3ccc(S(=O)(=O)N4CCC(C(=O)NC5CCCC5)CC4)cc13)CCCCC2	>57	u
CCOC(=O)C1CCN(Cc2ccc(N(C)C)cc2)CC1	x	-7%
Cc1ccc(OC(=O)c2ccc(C)c(C)c2)cn1	>57	13%
O=C(O)CCCCCNc1nc2ncn(Cc3ccccc3)c2c(=O)[nH]1	>57	2%
COc1ccc(CCN2CC3=C(C2=O)C(c2ccccc2)NC(=O)N3C)cc1OC (configuration not stated)	>57	u
Cc1ccc(CN2CCN(C)CC2)c(C)c1	>57	u
CCOC(=O)Oc1ccc2oc(=O)cc(C)c2c1	>57	-7%
CC1CCCN(C(=O)c2cc(F)c(F)cc2Cl)C1 (configuration not stated)	>57	-23%
C(/CCc1ccccc1)=N\n1cnnc1	>57	0%
Cc1ccc2nc(-c3ccc(N)cc3)sc2c1S(=O)(=O)O	x	u
Cn1c(SCCS(=O)(=O)c2ccc(Cl)cc2)nnc1-c1ccccc1	>57	10%

# Going on with the list.
smiles	Prx2 Sm inh	Anthrax LT inh
CCCCOc1ccc(-c2nnn(CC(=O)Nc3ncc(CC(=O)OCC)s3)n2)cc1	>57	u
Cc1cc(NC(=O)c2cc(C(C)C)on2)no1	>57	3%
COc1c(C)cc(Br)cc1C(=O)Nc1cccc(-c2nc3ncccc3o2)c1	>57	u
Cc1cc(C)nc(N2CCC(C(=O)NCc3ccco3)CC2)n1	>57	12%
O=C(Cc1ccc2c(c1)OCCO2)c1c(O)cc(O)cc1O	>57	-1%
CC1CCCCN1C(=O)Cn1c(=O)n(C2CCCCC2)c(=O)c2ccccc21 (configuration not stated)	>57	7%
CC1(C)CC(=O)C(C=NCCN2CCN(CCCCS(=O)(=O)O)CC2)=C(O)C1	>57	-9%
C=CCn1c(-c2cc(OC)cc(OC)c2)n[nH]c1=S	>57	11%
CC(CC(C)C(=O)N1CCOCCN(C(=O)C(C)CC(C)C(=O)O)CCOCC1)C(=O)O (configuration not stated)	>57	-5%
Cc1cc(C(F)(F)F)c2c(C)nn(CCc3nn[nH]n3)c2n1	>57	u
CC(C)(C)c1cc(C(=O)NCc2ccco2)ccn1	>57	0%
CS(=O)(=O)N(CCC(=O)O)Cc1ccccc1	>57	-6%
O=C(CCn1nnc2ccccc21)Nc1nnc(-c2ccccc2F)s1	>57	u
O=C1CC(N2CCC(O)(c3ccc(Cl)cc3)CC2)C(=O)N1Cc1ccc(N2CCCC2=O)cc1 (configuration not stated)	>57	-12%
Cc1sc(-n2cccc2)c(C(=O)O)c1C	>57	-7%
CCOC(=O)N1CCC(NC(=O)CN2C(=O)CSc3ncccc32)CC1	>57	13%
CC(NC(=O)c1cccnc1)c1ccc2c(c1)OCO2 (configuration not stated)	>57	14%
CCCc1cc(C(N)=O)c(NC(=O)c2ccco2)s1	>57	2%
COc1ccc(NC(=O)Nc2cc(C)ccn2)cc1	x	5%
O=C(COc1ccccc1)NCc1ccc2c(c1)OCO2	>57	-14%

# Part of the list above, with values under each structure.
# The line under a structure holds: Prx2 Sm inh	Anthrax LT inh
CCCc1cc(C(N)=O)c(NC(=O)c2ccco2)s1
→ >57	2%
COc1ccc(NC(=O)Nc2cc(C)ccn2)cc1
→ x	5%

# Single values from the results shown.
# Anthrax LT inh result of `O=C1CC(N2CCC(O)(c3ccc(Cl)cc3)CC2)C(=O)N1Cc1ccc(N2CCCC2=O)cc1` (configuration not stated) reads -12%
# Anthrax LT inh result of `CC1(C)CC(=O)C(C=NCCN2CCN(CCCCS(=O)(=O)O)CC2)=C(O)C1` reads -9%
# Prx2 Sm inh result of `O=C(CCn1nnc2ccccc21)Nc1nnc(-c2ccccc2F)s1` reads >57

# (cont.)
smiles	Prx2 Sm inh	Anthrax LT inh
COc1ccc(S(=O)(=O)Cc2ccc(C(=O)NC3CC3)o2)cc1	>57	9%
Cc1ccc2c(c1)C1CN(C)CCC1N2C(=O)Nc1ccc(Cl)cc1 (configuration not stated)	>57	20%
Cc1oc2nc(SCC(=O)N3CCCCC3)nc(N)c2c1C	>57	9%
COc1ccc(CCCC(=O)O)c(C)c1	>57&>57	11%
CC(=O)Cc1nsc(NC(=O)c2ccc(-c3cccc(C(F)(F)F)c3)o2)n1	>57	x
Cc1cc(C)c2c(-n3cccc3)c(C(=O)O)sc2n1	>57	2%
CCOc1ccc(S(=O)(=O)n2cnc3cc(C)c(C)cc32)cc1	>57	-7%
Cc1ccc2c(c1)NC(=O)C(CC(=O)NCCCN1CCCC1)O2 (configuration not stated)	>57	-5%
CC1(C)S[C@@H]2[C@H](NC(=O)[C@@H](N)c3ccc(O)cc3)C(=O)N2[C@H]1C(=O)O	>57	2%[3.58 µM]
Cc1ccc(SCc2cc(=O)[nH]c(N3CCCCC3)n2)cc1	>57	u
CC(=O)c1ccc(NC(=O)Nc2ncn(Cc3cccc(C)c3)n2)cc1	>57	6%
CCCn1cnc2c(c1=O)c1nc3ccccc3nc1n2CCC1=CCCCC1	>57	0%
CCOc1ccc(C(C)(C)C)cc1S(=O)(=O)N1CCOCC1	>57	-18%
FC(F)(F)c1cc(-c2ccccc2)nc(N2CCCCC2)n1	>57	-3%
CCCC(=O)Nc1nn(C)c2nc3c(C)cccc3cc12	>57	-1%
Cc1cccc(CNc2ncnc3ccc(-c4ccc5c(c4)OCO5)cc23)c1	>57	u
O=S(=O)(c1ccccc1)N1CCC2(CCCN(c3ccccn3)C2)CC1	>57	u
CNc1cc(-c2ccccc2C)ncn1	>57	-3%
O=C1COc2ccc(C(=O)COC(=O)CCc3ccc(S(=O)(=O)N4CCOCC4)cc3)cc2N1	>57	-10%
CCOC(=O)c1cc(NC(=O)OC)c(C)nc1C	>57	-5%

# Shown with each value named: part of the list above.
Cc1cc(C)c2c(-n3cccc3)c(C(=O)O)sc2n1
  Prx2 Sm inh: >57	Anthrax LT inh: 2%
Cc1cccc(CNc2ncnc3ccc(-c4ccc5c(c4)OCO5)cc23)c1
  Prx2 Sm inh: >57	Anthrax LT inh: u
CCOC(=O)c1cc(NC(=O)OC)c(C)nc1C
  Prx2 Sm inh: >57	Anthrax LT inh: -5%

# Next structures follow.
smiles	Prx2 Sm inh	Anthrax LT inh
O=C(Nc1ncccn1)C1CCCN1S(=O)(=O)c1ccc(Cl)c(Cl)c1 (configuration not stated)	>57	-17%
COc1cc2sc(C)nc2c2sccc12	>57	-30%
O=C(Nc1ccc2nc(-c3ccco3)[nH]c2c1)c1cccs1	>57	u
COc1ccc(N2C(=O)NC3CC2(C)Oc2ccc(Br)cc23)cc1OC (configuration not stated)	>57	-9%
c1ccc(Oc2nc(NCc3ccco3)nc(NCc3ccco3)n2)cc1	>57	-27%
CCn1c(CNC(=O)c2ccco2)nnc1SCC(=O)Nc1cc(C(F)(F)F)ccc1Cl	>57	19%
O=C(c1ccccc1)c1ccccc1	x	-4%
Cc1nc(NCc2ccc3c(c2)OCO3)c2nnn(Cc3ccccc3)c2n1	>57	-19%
O=C(NC12CCC(O)C(SC1)/C2=N/O)c1ccccc1 (configuration not stated)	>57	0%
Cc1cc(N2CCN(c3nc4ccccc4s3)CC2)n2ncnc2n1	>57	13%
COc1ccc(NC(=O)C2CC(c3ccc(OC)c(OC)c3)=NO2)cc1OC (configuration not stated)	>57	8%
COc1ccc(S(=O)(=O)N2CCN(S(=O)(=O)c3ccc4c(c3)OCCO4)CC2)cc1C	>57	-2%
COc1cc(C(=O)Nc2nccs2)c(Br)c(OC)c1OC	>57	-9%
COc1cc(OC)c(C2C(C#N)=C(N)OC3=C2C(=O)CC(C)C3)cc1OC (configuration not stated)	>57	-15%
Cc1cc2cc(CCNC(=O)CC(C)(C)C)c(=O)[nH]c2cc1C	>57	-5%
CC(C)(C)OOC(=O)c1ccccc1	x	9%
CC1CCN(CCc2nc3cc(NC(=O)Nc4ccccc4)ccc3n2C)CC1	>57	-17%
N#C/C=C/C#N	x	u
Cc1cccc2cc(CN(Cc3cccnc3)C(=O)c3ccncc3)c(=O)[nH]c12	>57	-3%
CC1(C)Cc2cccc(OCC(=O)N3CCN(S(=O)(=O)c4ccccc4F)CC3)c2O1	>57	-4%

# (cont.)
smiles	Prx2 Sm inh	Anthrax LT inh
O=C(CN1CCN(c2nc(-c3ccc(Cl)cc3)cs2)CC1)NCc1ccco1	>57	u
O=C1CCC(=O)N1c1ccc(CSc2nnnn2C2CCCCC2)cc1	x	-3%
COCCNC(=O)Cn1cnc2ccc(S(=O)(=O)N3CCC(C)CC3)cc2c1=O	>57	u
CCN(CC)CCCN1C(=O)C(O)=C(C(=O)c2ccco2)C1c1cc(OC)ccc1OC (configuration not stated)	>57	u
CC(=O)c1c(C(C)=O)c(C)n(NC(=O)c2cccnc2)c1C	>57	-24%
CCOC(=O)CCN(Cc1cccs1)S(=O)(=O)c1ccc(Cl)cc1	>57	-27%
COc1ccc2[nH]cc(C(=O)CN3CCCCC3)c2c1	>57	-19%
Cc1ccc2cc3cc(C(=O)N4CC(C)CC(C)C4)oc3nc2c1 (configuration not stated)	>57	-1%
CSc1nc(C)cc(Nc2ccc(O)c(CN3CCOCC3)c2)n1	>57	0%[8 µM]
O=C(NCc1ccco1)C1OCCc2ccccc21 (configuration not stated)	>57	u
Cc1ccc(C)n1-n1c(C)nc2scc(-c3cccs3)c2c1=O	x	u
COc1ccc(C[C@@H]2c3cc(OC)c(OC)cc3CC[N@+]2(C)CCC(=O)OCCCCCOC(=O)CC[N@@+]2(C)CCc3cc(OC)c(OC)cc3[C@H]2Cc2ccc(OC)c(OC)c2)cc1OC	>57	17%[3.58 µM]
CC(=O)c1c(Nc2ccc3c(c2)OCCO3)oc(C)cc1=O	>57	-2%
CC(=Nc1ccc2c(c1)nc(CO)n2C)C1=C(O)CC(C)(C)CC1=O	>57	4%
CCOc1ccc(NC(=O)C2CC(=O)N(C)C(=Nc3ccc4c(c3)OCO4)S2)cc1 (configuration not stated)	>57	u
Cc1ccc(SCc2cc(=O)n3[nH]c(C)nc3n2)cc1	>57	5%
CCOC(=O)Cn1c(=O)c2c(nc3n2CCS3)n(C)c1=O	>57	-3%
O=S1(=O)CCN2C(Cc3ccc(SC(F)F)cc3)=CSC2=N1	>57	u
O=C(CN1CCN(c2ccccn2)CC1)N1c2ccccc2Sc2ccc(C(F)(F)F)cc21	>57	u
O=C1CC(c2cccs2)CC2=C1C(c1ccccc1)n1ncnc1N2 (configuration not stated)	>57	6%

# More results follow:
smiles	Prx2 Sm inh	Anthrax LT inh
COc1ccc(CC(=O)OCc2cc3ccc(C)cc3[nH]c2=O)cc1	>57	-4%
COc1ccc(-c2cc(C(=O)NCc3ccc(Cl)cc3)no2)cc1OC	>57	3%
CCOCCCn1c(=N)c(C(N)=S)cc2c(=O)n3cccc(C)c3nc21	>57	0%
C=CCSc1nnc(-c2cccnc2)o1	>57	4%
Cc1cccc(OCC(O)Cn2c(=N)n(CCN3CCCCC3)c3ccccc32)c1 (configuration not stated)	>57	x
CN(CC(=O)NC1CCCCC1)S(=O)(=O)c1cccc2cccnc12	>57	2%
O=C(NCc1cccnc1)c1cccc(F)c1	x	-9%
N#Cc1c(-c2ccco2)cc(-c2ccccn2)nc1N	>57	u
Cc1ccc(-c2csc3nnc(SCc4csc(C)n4)n23)cc1	>57	-6%
CC(=O)Nc1nc(C)nc(-c2ccccc2OC(C)=O)n1	>57	-8%
COc1ccccc1NC(=O)CN1CCN(CC(=O)Nc2ccc3c(c2)OCO3)CC1	>57	u
COCC(=O)N1CCC2(CCCN(c3ccccn3)C2)CC1	>57	7%
COc1ccc(C(OCCN2CCC[C@@H](C(=O)O)C2)(c2ccc(OC)cc2)c2ccc(OC)cc2)cc1	>57	-19%
COCCCNC(CC(=O)Nc1ccc(N(C)C)cc1)C(=O)O (configuration not stated)	>57	-3%
Cn1c(=O)[nH]c(=O)c2c1nc(SCC(=O)Nc1ccccc1)n2Cc1ccccc1	>57	-3%
O=C(O)CCCC(=O)Nc1ccc(C(=O)N2CCCCC2)cc1	>57	2%
CC(C)C[C@@H](CC(=O)N[C@@H](CCC(=O)O)CC(=O)O)NC(=O)[C@@H]1CNCC[C@H]1NC(=O)C[C@@H](NC(=O)C[C@H](Cc1ccccc1)NC(=O)[C@@H]1CNCC[C@H]1N)C(C)C	>57	-7%

# This is a subset, so the mix of outcomes need not match the whole.
